UUG fidelity = yeast start codon fidelity modulation; S. cerevisiae UUG-firefly luciferase reporter, luminescence/redox ratio; activity score, % at 18.7 µM; hit rate 0.13% among 350,000; AID 602363;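 active = replicate mean at a twofold rise or more, about +100% in these data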;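 also: firefly luciferase made from a UUG start codon reports start codon fidelity; reporter light over untreated wells divided by growth signal over untreated wells; some hits fall short of that in this replicate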
HIV Env fusion = inhibitors of HIV Env-mediated cell fusion. HeLa-JRFL Env/CEM21 cell fusion, luciferase. AID 651610. hit rate 1.1% among 360,000. inhibition, % at 12.3 µM;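 active = mean replicate inhibition score of at least 50 and every replicate individually at or above 50; inconclusive = only one of the two criteria met; inactive = mean below 50 and not all replicates reaching 50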;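 also: 0% = plate neutral controls and 100% = maraviroc near 300 nM; one replicate is shown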
The depositor's hits bear a star; ? = inconclusive; [ ] = remark or other dose. This is a subset (hit frequency here may not be typical).

SMILES	UUG fidelity	HIV Env fusion
CCCC#Cc1cnc2c(c1)C(=O)N([C@@H](C)CO)C[C@@H](C)[C@H](CN(C)C(=O)C1CCCCC1)O2	2	-7[16.7 µM]
C[C@@H]1CN([C@@H](C)CO)C(=O)Cc2cc(NS(C)(=O)=O)ccc2O[C@H]1CN(C)C(=O)NC1CCCCC1	-12	4[16.7 µM]
O=C(C[C@@H]1CC[C@@H]2[C@H](COC[C@@H](O)CN2C(=O)c2ccccc2F)O1)NCc1ccc(Cl)c(Cl)c1	-6	15[16.7 µM]
C[C@H]1CCCCO[C@@H](CN(C)C)[C@@H](C)CN([C@@H](C)CO)C(=O)c2cc(NC(=O)Nc3ccccc3)ccc2O1	18	7[16.7 µM]
C[C@H](CO)N1C[C@H](C)[C@@H](CN(C)CC2CCCCC2)OCCCC[C@H](C)Oc2ccc(NC(=O)Nc3ccc(C(F)(F)F)cc3)cc2C1=O	0	5[16.7 µM]
C[C@@H]1CN([C@@H](C)CO)C(=O)c2cc(N(C)C)ccc2O[C@@H]1CN(C)C(=O)Nc1ccc2c(c1)OCO2	5	-6[16.7 µM]
C[C@@H]1CCCCO[C@@H](CN(C)S(=O)(=O)c2ccc(Cl)cc2)[C@H](C)CN([C@H](C)CO)C(=O)c2cc(NC(=O)Cc3ccccc3)ccc2O1	-3	-10[16.7 µM]
C[C@@H]1CN([C@H](C)CO)C(=O)c2cccc(NC(=O)NC3CCCCC3)c2O[C@H]1CN(C)Cc1ccc(C(F)(F)F)cc1	6	14[16.7 µM]
O=C(NCC[C@H]1CC[C@H](NC(=O)C2CCCCC2)[C@H](CO)O1)Nc1ccc(Cl)cc1	1	-3[16.7 µM]
COc1ccc(NC(=O)N(C)C[C@H]2Oc3ccc(NC(=O)Cc4ccccc4)cc3C(=O)N([C@@H](C)CO)C[C@H]2C)cc1	11	6[16.7 µM]
C[C@@H]1CN([C@H](C)CO)C(=O)c2cccc(NC(=O)Nc3ccc4c(c3)OCO4)c2O[C@H]1CN(C)Cc1ccncc1	9	-5[16.7 µM]
CCC(=O)Nc1ccc2c(c1)C(=O)N(C)[C@@H]1CC[C@@H](CC(=O)NCc3ccccc3Cl)O[C@@H]1CO2	6	-39[16.7 µM]
C/C=C/c1cnc2c(c1)C(=O)N([C@@H](C)CO)C[C@H](C)[C@@H](CN(C)Cc1ccc(F)cc1)O2	14	-19[16.7 µM]
CNC[C@H]1Oc2ccc(NS(C)(=O)=O)cc2CC(=O)N([C@H](C)CO)C[C@@H]1C	-18	8[16.7 µM]
CNC[C@H]1Oc2ccc(NC(=O)C3CCCCC3)cc2CC(=O)N([C@@H](C)CO)C[C@@H]1C	7	-3[16.7 µM]
CCCN(C)C[C@@H]1Oc2cc(C#CCN(C)C)ccc2S(=O)(=O)N([C@@H](C)CO)C[C@@H]1C	-9	-12[16.7 µM]
CC(=O)NCCCC[C@@H]1NC(=O)[C@@H]2C[C@H](C(=O)NCc3ccc(F)cc3)[C@H](c3ccc(O)cc3)N2C1=O	-2	-4[16.7 µM]
C[C@@H]1CN([C@@H](C)CO)C(=O)Cc2cc(NC(=O)Cn3cnnn3)ccc2O[C@@H]1CN(C)Cc1ccc(C(F)(F)F)cc1	12	-18[16.7 µM]
COc1ccc(NC(=O)Nc2ccc3c(c2)CC(=O)N([C@H](C)CO)C[C@@H](C)[C@H](CN(C)C(=O)Nc2cccc4ccccc24)O3)cc1	3	-5[16.7 µM]
C[C@H]1CN([C@@H](C)CO)C(=O)c2cc(NC(=O)Nc3ccccc3)ccc2O[C@@H]1CN(C)S(=O)(=O)c1cn(C)cn1	8	26[16.7 µM]
Cc1ccc(S(=O)(=O)Nc2cccc3c2O[C@@H](CN(C)S(=O)(=O)c2ccc(F)cc2)[C@H](C)CN([C@H](C)CO)C3=O)cc1	-13	?
COc1ccc(NC(=O)N(C)C[C@H]2Oc3c(NS(=O)(=O)c4ccc(Cl)cc4)cccc3C(=O)N([C@H](C)CO)C[C@@H]2C)cc1	-3	-16[16.7 µM]
C[C@@H]1CN([C@H](C)CO)C(=O)c2cc(/C=C/c3ccccc3)cnc2O[C@H]1CN(C)S(C)(=O)=O	6	29[16.7 µM]
C[C@@H]1CCCCO[C@H](CN(C)C(=O)NC2CCCCC2)[C@H](C)CN([C@@H](C)CO)C(=O)c2cc(NC(=O)c3ccccc3)ccc2O1	18	34[16.7 µM]
C[C@@H]1CN([C@@H](C)CO)C(=O)Cc2cc(NC(=O)c3ccncc3)ccc2O[C@@H]1CN(C)S(=O)(=O)c1cccs1	-27	1[16.7 µM]

4 entries from above, as labelled records.
> C[C@H]1CN([C@@H](C)CO)C(=O)c2cc(NC(=O)Nc3ccccc3)ccc2O[C@@H]1CN(C)S(=O)(=O)c1cn(C)cn1
  UUG fidelity: 8
  HIV Env fusion: 26[16.7 µM]

> Cc1ccc(S(=O)(=O)Nc2cccc3c2O[C@@H](CN(C)S(=O)(=O)c2ccc(F)cc2)[C@H](C)CN([C@H](C)CO)C3=O)cc1
  UUG fidelity: -13
  HIV Env fusion: ?

> COc1ccc(NC(=O)N(C)C[C@H]2Oc3c(NS(=O)(=O)c4ccc(Cl)cc4)cccc3C(=O)N([C@H](C)CO)C[C@@H]2C)cc1
  UUG fidelity: -3
  HIV Env fusion: -16[16.7 µM]

> C[C@@H]1CN([C@H](C)CO)C(=O)c2cc(/C=C/c3ccccc3)cnc2O[C@H]1CN(C)S(C)(=O)=O
  UUG fidelity: 6
  HIV Env fusion: 29[16.7 µM]

Going on with the list:
SMILES	UUG fidelity	HIV Env fusion
CN(C)CC(=O)N[C@H]1C=C[C@@H](CC(=O)NCc2ccc(Cl)cc2)O[C@H]1CO	-13	0[16.7 µM]
NCC[C@H]1CC[C@@H](NS(=O)(=O)c2ccc(Cl)cc2)[C@@H](CO)O1	8	19[16.7 µM]
COCC(=O)Nc1ccc2c(c1)[C@@H]1C[C@H](CC(=O)NCCN3CCCCC3)O[C@H](CO)[C@@H]1O2	-10	1[16.7 µM]
COc1ccccc1C#Cc1ccc2c(c1)O[C@@H](CN(C)Cc1cncnc1)[C@H](C)CN([C@H](C)CO)S2(=O)=O	17	7[16.7 µM]
COCC#Cc1ccc2c(c1)O[C@H](CN(C)Cc1ccc3c(c1)OCO3)[C@H](C)CN([C@H](C)CO)S2(=O)=O	5	10[16.7 µM]
C[C@H]1CN([C@@H](C)CO)C(=O)c2cc(NC(=O)c3ccncc3)ccc2O[C@H]1CN(C)Cc1ccncc1	-4	-15[16.7 µM]
CN1C(=O)c2cc(NC(=O)c3ccccc3)ccc2OC[C@H]2O[C@H](CC(=O)NCC3CC3)CC[C@H]21	12	5[16.7 µM]
Cc1noc(C)c1NC(=O)N(C)C[C@H]1Oc2ccc(NC(=O)NC3CCCCC3)cc2CC(=O)N([C@H](C)CO)C[C@H]1C	-1	-12[16.7 µM]
C[C@@H]1CN([C@H](C)CO)C(=O)c2cc(NS(=O)(=O)c3cn(C)cn3)ccc2O[C@@H](C)CCCCO[C@H]1CN(C)Cc1ccc(C(=O)O)cc1	-9	-12[16.7 µM]
Cc1noc(C)c1S(=O)(=O)N(C)C[C@@H]1OCCCC[C@H](C)Oc2ccc(NC(=O)NC3CCCCC3)cc2C(=O)N([C@H](C)CO)C[C@H]1C	9	-37[16.7 µM]
C[C@H](CO)N1C[C@H](C)[C@@H](CN(C)C(=O)C2CC2)Oc2ncc(Br)cc2C1=O	-7	-3[16.7 µM]
Cc1ccc(S(=O)(=O)N(C)C[C@H]2OCCCC[C@H](C)Oc3ccc(NS(C)(=O)=O)cc3C(=O)N([C@@H](C)CO)C[C@H]2C)cc1	10	-1[16.7 µM]
O=C(NCC[C@@H]1CC[C@@H](NS(=O)(=O)c2cccc(F)c2)[C@H](CO)O1)C1CCC1	5	4[16.7 µM]
Cc1ccc(S(=O)(=O)N(C)C[C@@H]2Oc3ccc(NS(=O)(=O)c4ccc(Cl)cc4)cc3CC(=O)N([C@H](C)CO)C[C@H]2C)cc1	-4	-1[16.7 µM]
COc1ccccc1-c1ccc2c(c1)O[C@H](CN(C)C(=O)c1ccncc1)[C@@H](C)CN([C@@H](C)CO)S2(=O)=O	-8	11[16.7 µM]
C/C=C/c1ccc2c(c1)O[C@H](CN(C)C(=O)c1ccccc1)[C@H](C)CN([C@@H](C)CO)S2(=O)=O	-2	-5[16.7 µM]
COc1ccc(CN(C)C[C@H]2OCCCC[C@H](C)Oc3ccc(NC(=O)c4ccccc4)cc3C(=O)N([C@@H](C)CO)C[C@H]2C)cc1	4	-2[16.7 µM]
O=C(N[C@H]1CC[C@@H](CCNS(=O)(=O)c2ccc(F)cc2)O[C@@H]1CO)c1cnccn1	4	-17[16.7 µM]
C[C@H]1CN([C@@H](C)CO)C(=O)Cc2cc(NC(=O)Nc3ccccc3)ccc2O[C@H]1CN(C)C	-2	-12[16.7 µM]
C[C@@H]1CCCCO[C@@H](CN(C)Cc2ccc(C(=O)O)cc2)[C@H](C)CN([C@H](C)CO)C(=O)c2cc(NC(=O)CCC(F)(F)F)ccc2O1	-22	2[16.7 µM]
CNC[C@H]1Oc2ccc(NC(=O)Nc3ccc4c(c3)OCO4)cc2CC(=O)N([C@H](C)CO)C[C@@H]1C	20	-16[16.7 µM]
C[C@@H]1CCCCO[C@@H](CN(C)S(=O)(=O)c2cn(C)cn2)[C@@H](C)CN([C@@H](C)CO)C(=O)c2cc(NS(=O)(=O)c3ccccc3)ccc2O1	11	-69[16.7 µM]
O=C(C[C@@H]1CC[C@@H](NC(=O)Nc2cc(F)ccc2F)[C@H](CO)O1)Nc1ccccc1	0	-2[16.7 µM]
N#C[C@@H]1[C@H](c2ccc(-c3ccccc3F)cc2)[C@@H](CO)N1C(=O)Cc1ccccc1	-8	58*[16.7 µM]
C[C@H](CO)N1C[C@H](C)[C@@H](CN(C)Cc2ccc(Cl)c(Cl)c2)Oc2c(NC(=O)NC3CCCCC3)cccc2C1=O	6	-5[16.7 µM]

Compound profiles, from the list above.
Entry for C[C@H](CO)N1C[C@H](C)[C@@H](CN(C)Cc2ccc(Cl)c(Cl)c2)Oc2c(NC(=O)NC3CCCCC3)cccc2C1=O → UUG fidelity: 6; HIV Env fusion: -5[16.7 µM]
Entry for C[C@@H]1CCCCO[C@@H](CN(C)Cc2ccc(C(=O)O)cc2)[C@H](C)CN([C@H](C)CO)C(=O)c2cc(NC(=O)CCC(F)(F)F)ccc2O1 → UUG fidelity: -22; HIV Env fusion: 2[16.7 µM]

More records follow:
SMILES	UUG fidelity	HIV Env fusion
C[C@H](CO)N1C[C@H](C)[C@H](CN(C)C)Oc2c(NC(=O)C3CC3)cccc2C1=O	3	13[16.7 µM]
COc1ccc(NC(=O)N(C)C[C@H]2Oc3c(NC(=O)c4nc5ccccc5s4)cccc3C(=O)N([C@H](C)CO)C[C@H]2C)cc1	-4	-33[16.7 µM]
O=C(CCN1CCCCC1)NCC[C@H]1CC[C@H](NC(=O)Nc2ccc(F)cc2)[C@H](CO)O1	5	4[16.7 µM]
C[C@H]1CN([C@@H](C)CO)C(=O)c2cc(NC(=O)Nc3cccc4ccccc34)ccc2O[C@H]1CN(C)C(=O)Nc1ccc(F)cc1	-11	10[16.7 µM]
CCC(=O)N(C)C[C@@H]1Oc2ncc(-c3ccc(C(=O)N(C)C)cc3)cc2C(=O)N([C@@H](C)CO)C[C@@H]1C	-11	-3[16.7 µM]
C[C@@H]1CN([C@H](C)CO)C(=O)c2cccc(NC(=O)c3ccncc3)c2O[C@H]1CN(C)C(=O)NC1CCCCC1	0	0[16.7 µM]
N#C[C@H]1[C@@H](c2ccc(C3=CCCC3)cc2)[C@H](CO)N1C(=O)C1CC1	13	6[16.7 µM]
CC(C)c1cn(CC[C@H]2CC[C@H](NC(=O)Nc3cc(Cl)cc(Cl)c3)[C@@H](CO)O2)nn1	-9	6[16.7 µM]
CN1C(=O)C2C(C1=O)C1C=C(CCCO)C2C(c2ccc(CN3CCCC3)cc2)N1Cc1sc2ccccc2c1Cl (stereo unspecified)	16	-28[16.7 µM]
C[C@@H]1CN([C@H](C)CO)C(=O)Cc2cc(NS(=O)(=O)c3cn(C)cn3)ccc2O[C@H]1CN(C)C(=O)Nc1ccc2c(c1)OCO2	9	-12[16.7 µM]
CCCNC(=O)N(C)C[C@@H]1Oc2ncc(/C=C/c3ccccc3)cc2C(=O)N([C@@H](C)CO)C[C@H]1C	6	-18[16.7 µM]
COc1ccc(S(=O)(=O)N(C)C[C@H]2Oc3ccc(NC(=O)CCCCCC(=O)Nc4ccccc4N)cc3CC(=O)N([C@@H](C)CO)C[C@@H]2C)cc1	11	4[16.7 µM]
CC(C)NC(=O)N(C)C[C@@H]1Oc2c(NC(=O)C3CC3)cccc2C(=O)N([C@H](C)CO)C[C@H]1C	-5	1[16.7 µM]
COc1ccc(NC(=O)Nc2ccc3c(c2)C(=O)N([C@@H](C)CO)C[C@@H](C)[C@@H](CN(C)C(=O)Nc2ccc(F)cc2)O3)cc1	19	7[16.7 µM]
COc1ccc(C#Cc2ccc3c(c2)O[C@@H](CN(C)S(=O)(=O)c2ccccc2F)[C@H](C)CN([C@H](C)CO)S3(=O)=O)cc1	-2	45[16.7 µM]
C[C@@H]1CN([C@@H](C)CO)C(=O)c2cc(NC(=O)Nc3ccc(F)cc3)ccc2O[C@@H]1CN(C)Cc1ccc(Cl)c(Cl)c1	10	25[16.7 µM]
